Screening results: PubChem BioAssay, Johns Hopkins Ion Channel Center
KCNQ2 pot – potentiators of rat KCNQ2 potassium channel. O88943. CHO-K1 KCNQ2, FluxOR thallium flux fluorescence; hits give high values. B-score at 10 µM. 0.54% of 310,000 active;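 active = fluorescence ratio B-score at least 3 SD of library B-scores, with initial fluorescence B-score within 3 SD, cut at about 5.3 in these data; same plate scores as AID 2156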;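 note: B-score of peak minus minimum over baseline fluorescence ratio after K+ and Tl+ stimulus; positive B-score means potentiation of KCNQ2 with more thallium influx and brighter signal; only the inactives scoring about 0 or higher are listed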
Target sequence (O88943 whole entry, looked up): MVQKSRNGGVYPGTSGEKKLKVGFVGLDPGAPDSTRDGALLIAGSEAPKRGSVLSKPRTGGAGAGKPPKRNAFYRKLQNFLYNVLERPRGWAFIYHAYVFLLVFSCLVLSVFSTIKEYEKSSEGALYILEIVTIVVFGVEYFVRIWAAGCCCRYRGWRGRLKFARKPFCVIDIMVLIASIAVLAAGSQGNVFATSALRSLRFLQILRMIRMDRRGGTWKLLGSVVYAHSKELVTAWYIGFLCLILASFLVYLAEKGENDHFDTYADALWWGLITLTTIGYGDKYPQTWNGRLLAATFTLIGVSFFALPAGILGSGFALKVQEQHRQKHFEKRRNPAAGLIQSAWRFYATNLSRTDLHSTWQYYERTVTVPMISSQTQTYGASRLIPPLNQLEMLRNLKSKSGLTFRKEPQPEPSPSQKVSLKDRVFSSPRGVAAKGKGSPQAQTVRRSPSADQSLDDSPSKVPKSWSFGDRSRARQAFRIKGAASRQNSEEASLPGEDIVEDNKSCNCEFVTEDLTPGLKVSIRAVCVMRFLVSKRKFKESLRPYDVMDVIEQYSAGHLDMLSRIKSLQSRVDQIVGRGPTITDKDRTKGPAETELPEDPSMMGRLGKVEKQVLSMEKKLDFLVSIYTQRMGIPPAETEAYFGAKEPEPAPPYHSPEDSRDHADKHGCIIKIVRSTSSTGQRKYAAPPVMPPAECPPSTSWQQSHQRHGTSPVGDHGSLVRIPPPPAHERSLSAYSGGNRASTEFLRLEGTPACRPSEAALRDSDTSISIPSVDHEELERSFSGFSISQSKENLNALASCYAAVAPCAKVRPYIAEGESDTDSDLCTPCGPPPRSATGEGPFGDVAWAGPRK
KCNQ2 pot baseline – recorded beside KCNQ2 pot, whose call it bears; B-score; compound at 10 µM; measured here: initial fluorescence intensity artifact check;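 brightness before thallium and not channel activity; 0 = typical well and far values either way flag optical interference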
The depositor's hits bear a star; · = not tested or not shown. A portion of the library; the hit share may differ from the screen's.

SMILES	KCNQ2 pot	KCNQ2 pot baseline
CCCCN(C)C(=O)c1nc2ccccn2c1CN1CCSCC1	0.67	0.44
O=C(NCCc1nc2ccccc2[nH]1)c1cccc(Br)c1	1.3	1.1
CC(C)C(NC(=O)/C(=C\c1ccco1)NC(=O)c1ccco1)C(=O)O (stereo not given)	0.05	0.86
O=C(CSc1ccc(Cl)cc1)OCc1nnc(-c2ccccc2)o1	0.29	-1
CCNC(=O)C1CC(=O)N(c2ccc(Br)cc2)C1 (stereo not given)	0.07	-1.9
O=[N+]([O-])c1cccc2c(S(=O)(=O)N3CCOCC3)cccc12	0.01	-1.8
O=C(OCc1ccc(COC(=O)c2cccnc2Cl)cc1)c1cccnc1Cl	0.11	0.44
Cc1csc(NC(=O)c2ccc(C)c(S(=O)(=O)N3CCOCC3)c2)n1	1	-0.99
O=C(CSc1ncc(C(F)(F)F)cc1Cl)N1CCN(S(=O)(=O)c2ccccc2)CC1	4.2	0.01
CCCCN(CCCC)Cc1ccc(C(=O)NNC(=O)Nc2ccccc2)o1	1.3	0.58
COc1ccc(C(=O)Nc2ccc3c(c2)nc(CN2CCN(C(C)=O)CC2)n3C)cc1	0.4	-0.78
CN(c1ccccc1C(=O)Nc1ccccc1C(=O)NCc1ccco1)S(C)(=O)=O	0.44	-0.44
Cc1cc(/C=N/n2cnnc2)c(C)n1-c1ccc(Cl)cc1	1.4	-0.09
CC1CC(C)CN(C(=O)C2CCCN(S(=O)(=O)c3cccc4nonc34)C2)C1 (stereo not given)	0.48	2
CC(=O)c1ccc2noc(-c3ccc(C)cc3)c2c1	0.78	-0.51
CCC(C)NC(=O)C1CCN(S(=O)(=O)c2ccc(OC)cc2)CC1 (stereo not given)	0.34	-0.68
CCN1CCCC1CNC(=O)C(=O)Nc1cccc(OC)c1 (stereo not given)	0.38	0.15
COC(=O)CCCC(=O)NC1CCCc2c1cnn2-c1ccc(F)cc1F (stereo not given)	0.83	1.2
Cc1cc(C(=O)CSc2nc3ccccc3c(=O)[nH]2)c(C)n1CC1CCCO1 (stereo not given)	2.7	0.79
CC(NC(=O)Cc1ccccc1)C1COc2ccccc2O1 (stereo not given)	4.8	0.49

Among those listed so far, two contain bromine.
SMILES	KCNQ2 pot	KCNQ2 pot baseline
O=C(NCCc1nc2ccccc2[nH]1)c1cccc(Br)c1	1.3	1.1
CCNC(=O)C1CC(=O)N(c2ccc(Br)cc2)C1 (stereo not given)	0.07	-1.9

Later entries.
SMILES	KCNQ2 pot	KCNQ2 pot baseline
N#Cc1c(SCC(N)=O)nc2c(c1-c1ccncc1)CCCC2	1.4	2.5
O=C(NNS(=O)(=O)c1ccc(F)cc1F)c1csc(-c2cccnc2)n1	1.5	-0.09
COc1ccc(N2CCN(CC(=O)Nc3cc(C)on3)CC2)cc1	1.1	-0.29
CCC(C(=O)Nc1c(C)cc(C)cc1C)N1CCCCCC1 (stereo not given)	3.6	1.7
CC(C)(CSc1nncn1N)NS(=O)(=O)c1ccc(Cl)cc1	0.41	-0.19
COc1cc2c(cc1OC)[C@H](C)N(C(=O)NCc1ccccc1)CC2	1	-0.16
S=c1nc[nH]c2c1[nH]c1ccc(Cl)cc12	0.72	0.75
CCCCCC1CC(=O)C=C(C)C1C(=O)OC (stereo not given)	0.08	-0.57
COc1ccc(CC(=O)NCc2n[nH]c(=S)n2-c2ccc(F)cc2)cc1	0.59	0
CCc1cccc(C)c1NC(=O)c1ccoc1C	0.3	-0.46
CN1C(=O)/C(=C/c2ccc(-c3ccccc3[N+](=O)[O-])o2)SC1=Nc1ccc(Cl)c(C(=O)O)c1	0.1	0.09
CC1CCC(NC(=O)c2ccc3c(c2)S(=O)(=O)c2ccccc2C3=O)CC1 (stereo not given)	1.6	1.9
Cc1cc(NC(c2cccnc2)c2c(C)[nH]c3ccccc23)no1 (stereo not given)	0.1	0
CSc1ccc(-c2sc(Nc3cccc4ccccc34)n[n+]2-c2ccccc2)cc1	-5.6	·
O=C(NC1CC1)C(=O)c1c(-c2ccccc2)[nH]c2ccccc12	0.42	-0.57
Cn1nc(C(F)(F)F)c(CO)c1Sc1ccc(F)cc1	0.97	-0.49
Cc1ccc(SCc2ccc(C(=O)Nc3ccccc3C(=O)NC(C)C)cc2)cc1	0.63	0.03
O=C1C(=O)N(c2ccccc2)c2ccccc21	0.54	0
COC(=O)N/N=C/c1cc([N+](=O)[O-])cc(Br)c1O	0.01	0.38
O=C(CN1CCN(S(=O)(=O)c2ccccc2)CC1)NC(=O)NCc1ccccc1	0.66	0.55

Three structures from above, ordered by molar mass, largest number first.
SMILES	KCNQ2 pot	KCNQ2 pot baseline
CC1CC(C)CN(C(=O)C2CCCN(S(=O)(=O)c3cccc4nonc34)C2)C1 (stereo not given)	0.48	2
CCNC(=O)C1CC(=O)N(c2ccc(Br)cc2)C1 (stereo not given)	0.07	-1.9
CCC(C(=O)Nc1c(C)cc(C)cc1C)N1CCCCCC1 (stereo not given)	3.6	1.7

Further records.
SMILES	KCNQ2 pot	KCNQ2 pot baseline
COc1ccc(C(=O)CSC2=NS(=O)(=O)c3cc(Cl)ccc3N2)cc1	0.32	2.2
Cc1cc(C)c(C)c(S(=O)(=O)NC2CCCCC2)c1C	0.44	-0.19
Cc1c(C(=O)NCc2ccc3c(c2)OCO3)cccc1[N+](=O)[O-]	5	0.86
O=C(NCc1ccccc1C(F)(F)F)C1CCC(=O)N(C2CC2)C1 (stereo not given)	1.3	-0.02
Cc1ccc(S(=O)(=O)c2nc(-c3ccc(F)cc3)oc2SCC(=O)NCC2CCCO2)cc1 (stereo not given)	0.87	-0.04
CC1(C)NC(=O)N(CCCOc2ccc(Br)cc2Cl)C1=O	0.39	-0.93
O=C1CSC(=Nc2ccccc2[N+](=O)[O-])N1	0.75	-1.9
O=c1cc(-c2ccccc2)nc(SCCOc2ccccc2Cl)[nH]1	1.2	-0.6
O=C(NCCc1csc(-c2cccnc2)n1)c1ccccc1	0.72	2.5
S=C(Nc1ccccc1)N1CCn2c(nc3ccccc32)C1	1.9	-0.59
CC1c2ccsc2CCN1S(=O)(=O)c1ccccc1 (stereo not given)	0.51	-0.89
CCNC(=S)NNC(=O)CSc1nc2ccccc2[nH]1	0.21	0.67
O=C(O)c1cccnc1Br	1.1	-1.8
Cc1ccc([N+](=O)[O-])cc1NC(=O)c1ccc(C(C)(C)C)cc1	0.24	0.53
O=C(N/N=C/c1cccc(Cl)c1)c1c(O)c2c([nH]c1=O)CCCC2	1	-2.1
Cc1nc2ccccc2n1CC(=O)NC1CCCCCC1	1.8	-0.01
COc1ccc(NCc2ccccc2[N+](=O)[O-])cc1OC	0.12	-3
O=C(O)/C(=C\c1cn(-c2ccccc2)nc1-c1cccnc1)NC(=O)c1ccccc1	0.15	-0.28
O=C(O)CSc1ncnc2scc(-c3ccccc3)c12	0.69	0.21
Cc1cccc(NC2=C(Cl)C(=O)OC2OC(=O)c2ccco2)c1 (stereo not given)	0.23	-0.65
O=C(c1ccc2[nH]c(=O)c(=O)[nH]c2c1)N1CCc2ccccc21	0.45	1.5
COc1cc(S(=O)(=O)NC(Cc2c[nH]c3ccccc23)C(=O)O)ccc1NC(C)=O (stereo not given)	0.18	0.77
Cc1cc(C)cc(OCC(=O)NN2C(=O)c3ccccc3C2=O)c1	0.67	1.7
O=C(CCCN1C(=O)/C(=C/c2cccc(Br)c2)SC1=S)N1CCOCC1	0.81	1
O=C(NCc1ccccc1)/C(NC(=O)c1ccccc1)=C(/Sc1ccccn1)c1ccccc1	0.51	-1
CN(C)c1nc(N(C)C)nc(N2CC(CCl)OC2=N)n1 (stereo not given)	2	-0.75
Cc1ccc(NC(=O)CSc2nsc(SCC(=O)Nc3ccc(C)cc3C)c2C#N)c(C)c1	0.04	-0.18
O=C(N/N=C/c1cccnc1)c1cc(-c2cccs2)nc2ccccc12	0.09	-0.92
O=C(O)c1ccc(CNC(=O)c2ccccc2NC(=O)c2cccc([N+](=O)[O-])c2)cc1	0.01	0.07
CCOc1cc(CNn2cnnc2SCC(=O)NC(C)(C)C)ccc1OCC(=O)NC(C)(C)C	0.01	1.3
CC1CCN(c2ccc(NC(=O)c3cccnc3Cl)cc2)CC1	0.1	1.1
CCNC(=O)COc1ccc(F)cc1C(=O)c1cnn(-c2ccccc2)c1	1.6	0.01
COCCn1c(SCC(=O)Nc2ncc(Cl)c(C)c2Cl)nc2ccccc21	1.7	-2.2
Cc1ccc(OCC(=O)NCCNC(=O)c2ccc(C)nc2)cc1	0.95	-0.86
O=C1c2ccccc2NC(c2ccc3c(c2)OCO3)N1O (stereo not given)	0.89	0.88
CC(=O)c1c(C)[nH]c(C(=O)N2CCN(c3ccccn3)CC2)c1C	0.77	1.2
O=C(COC(=O)c1ccc[nH]c1=O)Nc1ccc(S(=O)(=O)N2CCCC2)cc1	0.87	-0.42
N#Cc1cc(N)ccc1Sc1ccc(Cl)cc1	2	-1.6
COc1ccc(-c2nn(-c3ccccc3)cc2/C=N/NC(=O)c2cccc(S(=O)(=O)Nc3ccccc3OC)c2)cc1	1	2
COc1ccc(/C=N/NC(=O)c2nnn(-c3nonc3N)c2-c2cccc(OC)c2)cc1	0.17	-1.9

Profiles, quoted from the list. Values in the order: KCNQ2 pot, KCNQ2 pot baseline
O=C(NCc1ccccc1)/C(NC(=O)c1ccccc1)=C(/Sc1ccccn1)c1ccccc1 across the screens: 0.51, -1
O=C(c1ccc2[nH]c(=O)c(=O)[nH]c2c1)N1CCc2ccccc21 across the screens: 0.45, 1.5

Following part
SMILES	KCNQ2 pot	KCNQ2 pot baseline
Cc1ccsc1C(=O)N1CCc2ccccc2C1	0.03	0.33
Cc1cc(C)c(C#N)c(SCC(=O)Nc2ccc(S(=O)(=O)Nc3onc(C)c3C)cc2)n1	0.78	-0.65
O=C(c1ccco1)N1CCCC(c2nc3c(nnn3Cc3ccccc3)c(=O)[nH]2)C1 (stereo not given)	1.4	0.24
COc1cccc(C2C(C(=O)c3cccs3)=C(O)C(=O)N2CCN2CCOCC2)c1 (stereo not given)	0.69	-0.72
CCOc1ccc(N=C2NC(=O)S/C2=C\c2ccc(OC)cc2)cc1	0.62	3.6
CN(C)C(=O)c1cn(-c2ccccc2)nc1-c1cccs1	0.55	0.05
O=C(CCCCCCN1C(=O)c2ccccc2C1=O)Nc1nccs1	0.33	0.86
CCCC1CC(c2csc(N)n2)CCO1 (stereo not given)	0.39	-1.1
Cc1ccc(NC(=O)CCN2C(=O)C3CCCCC3C2=O)cc1[N+](=O)[O-] (stereo not given)	1.4	-0.71
CCOC(=O)CNC(=O)Cn1cnc2c(nnn2-c2cccc(OC)c2)c1=O	0.55	-0.74
C=CCn1c(SCc2cccc(OC)c2)nnc1-c1ccncc1	0.36	-1.3
Cc1ccc(NC(=O)COc2ccccc2C(=O)NCCN(C)C)cc1	2.9	-2.4
Cc1c(C)c2ccc(OCC(=O)N3CCOCC3)c(C)c2oc1=O	0.85	0.15
CC1C(=O)N2CCCc3cc(S(=O)(=O)N(C)Cc4ccccc4)cc1c32 (stereo not given)	0.05	-0.2
O=C(c1cccs1)N1CCC(c2nc(-c3ccc(S(=O)(=O)N4CCOCC4)cc3)no2)CC1	0.19	-1.9
O=C(Nc1cc(C(F)(F)F)ccc1N1CCCCC1)c1cccc([N+](=O)[O-])c1	2.3	0.16
Cc1ccccc1C(=O)Nc1cccc(C(=O)Nc2ccccc2C(=O)O)c1	0.44	0.75
O=C(NC(=O)N1CCSCC1)c1c(Cl)cccc1Cl	0.66	0.7
CC(C)(C)OC(=O)N1CCC(Cc2cc(-c3ccccc3)no2)(C(=O)O)CC1	2.2	-0.3
COCC(C)n1c(C)cc(C(=O)CSc2ccc(NC(C)=O)cc2)c1C (stereo not given)	0.03	2.2

Some of these compounds in order of the KCNQ2 pot baseline value, high to low.
SMILES	KCNQ2 pot	KCNQ2 pot baseline
O=C(NCCc1csc(-c2cccnc2)n1)c1ccccc1	0.72	2.5
O=C(NCCc1nc2ccccc2[nH]1)c1cccc(Br)c1	1.3	1.1
CC(C)C(NC(=O)/C(=C\c1ccco1)NC(=O)c1ccco1)C(=O)O (stereo not given)	0.05	0.86
COc1cc(S(=O)(=O)NC(Cc2c[nH]c3ccccc23)C(=O)O)ccc1NC(C)=O (stereo not given)	0.18	0.77
S=c1nc[nH]c2c1[nH]c1ccc(Cl)cc12	0.72	0.75
Cc1nc2ccccc2n1CC(=O)NC1CCCCCC1	1.8	-0.01
Cc1cc(C)c(C)c(S(=O)(=O)NC2CCCCC2)c1C	0.44	-0.19

Following part
SMILES	KCNQ2 pot	KCNQ2 pot baseline
COC(=O)c1c(NC(C)=O)sc(C(=O)Nc2ccccc2C)c1C	1.8	-0.77
COc1cc(CNC2CCCCCCC2)c(Br)cc1OCCO	1.8	-2.2
CC1CN(S(=O)(=O)c2ccc(C(=O)Nc3sccc3C(N)=O)cc2)CC(C)O1 (stereo not given)	0.07	0
CC[C@@]1(c2ccccc2OC)C(=O)N(C(=O)OC)N1C(=O)OC	0.66	1.4
CCCCOc1ccc(N(CC(=O)NCC2CCCO2)C(=O)CCC(=O)Nc2nccs2)cc1 (stereo not given)	0.08	-0.69
CCCn1c(C)cc(C(=O)COc2ncnc3sccc23)c1C	0.21	3.9
COc1ccc(OC)c(S(=O)(=O)N(C)CC(=O)Nc2ccccc2OC)c1	0.25	-1.6
C/C(=N/OCO/N=C(\C)c1ccc(F)cc1F)c1ccc(F)cc1F	0.02	-0.74
FC(F)(F)c1nc(N2CCCC2)ncc1-c1nnnn1-c1ccccc1	0.48	-0.52
CC(C)(C)C(=O)NCCCNc1ccc([N+](=O)[O-])cc1	0.07	1.6
Fc1cccc(NC(=S)N2CCn3cccc3C2c2cccnc2)c1 (stereo not given)	1.2	0.1
CC1=CC(C)(C)NC(=S)N1c1ccccc1	1.8	0.63
COc1ccc(CN(CC(=O)NCCC(C)C)C(=O)CCC(=O)Nc2nccs2)cc1	0.29	-2.9
CC[C@H](C)[C@H](NC(N)=O)C(=O)NCCc1ccc(OC)cc1	0.89	-0.92
NS(=O)(=O)c1ccc(NC(=S)NC2CCCCC2)cc1	0.36	-0.02
O=C(CSc1nnc(CNC(=O)c2c(F)cccc2Cl)o1)NC1CCCCC1	2.1	-0.01
